STK33 kinase inh: human STK33 kinase inhibition; purified STK33, MBP phosphorylation, ADP-Glo luminescence; inhibition, % at 10 µM; 320,000 tested, 0.073% active;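 active = inhibition at or above 25%, using the most active replicate where run in duplicate; inactive = inhibition below 25%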
Target sequence (Q9BYT3 whole entry, looked up): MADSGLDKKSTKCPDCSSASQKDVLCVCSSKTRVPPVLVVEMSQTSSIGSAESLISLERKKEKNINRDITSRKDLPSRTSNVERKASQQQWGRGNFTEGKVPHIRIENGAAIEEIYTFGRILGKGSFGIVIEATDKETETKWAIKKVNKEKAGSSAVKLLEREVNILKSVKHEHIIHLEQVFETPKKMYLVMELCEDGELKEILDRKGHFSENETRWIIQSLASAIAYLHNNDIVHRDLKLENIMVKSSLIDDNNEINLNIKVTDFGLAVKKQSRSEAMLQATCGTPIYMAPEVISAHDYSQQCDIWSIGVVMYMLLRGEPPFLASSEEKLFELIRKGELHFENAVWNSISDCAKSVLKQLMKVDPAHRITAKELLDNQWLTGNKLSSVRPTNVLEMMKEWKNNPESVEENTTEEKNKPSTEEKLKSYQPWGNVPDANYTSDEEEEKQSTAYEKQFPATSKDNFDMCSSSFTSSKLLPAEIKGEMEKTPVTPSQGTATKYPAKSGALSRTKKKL
Numbers without * were called inactive. The list is partial, and most or all hits are left out here.

STK33 kinase inh	Compound
0.6	NC(=O)CSc1nnc(-c2cc(-c3cccs3)nc3ccccc23)o1
1.0	CCCNC(=O)c1ccc(COc2ccc(C(C)(C)C)cc2)o1
-0.1	Cc1c(Cl)c([N+](=O)[O-])nn1CCCC(=O)Nc1ccc(Cl)cc1Cl
-0.7	O=C(O)C1CCCCC1C(=O)Nc1ccc(F)cc1F (configuration not stated)
0.9	COc1ccc(OCCCCOc2ccccc2Cl)cc1
0.4	COc1ccc(N(CC(=O)Nc2ccc(C)c(F)c2)S(=O)(=O)c2c(C)noc2C)cc1
-0.9	CC(OC(=O)c1ccc(S(=O)(=O)NCc2ccco2)cc1)C(=O)Nc1ccc(Cl)cn1 (configuration not stated)
-0.5	CC(=O)c1nn(-c2ccc(Br)cc2)cc1C(=O)c1ccco1
-5.1	CCN(Cc1ccccc1)C(=O)CN1C(=O)COc2ccc(S(=O)(=O)N3CCCCCC3)cc21
1.0	CCn1nc(C)c(CNC(=O)c2cc(COc3ccccc3SC)on2)c1C
0.8	COc1cc(C)nn1-c1ccc(Cl)cc1
1.4	Cc1cc(NC(=O)CSc2nnc(C3CC3)n2C)no1
-0.3	CC1=C(C(=O)OC(C)C)C(/C=C/c2ccccc2)NC(=O)N1 (configuration not stated)
-0.6	O=C(c1ccc(F)cc1)N1CCN(c2ccc([N+](=O)[O-])c(N3CCOCC3)c2)CC1
2.5	COc1ccc(-c2cc(C(F)(F)F)n3ncc(C(=O)NCc4ccco4)c3n2)cc1
-0.7	CCOC(=O)N1CCC(NC(=O)c2cc(C(=O)Nc3ccc(S(=O)(=O)N4CCOCC4)cc3)ccc2CO)CC1
-1.1	CN(CC(=O)Nc1cccc(F)c1)C(=O)c1ccc(NC2CC2)c([N+](=O)[O-])c1
-2.0	O=C(c1cc2ccccc2oc1=O)N1CCN(Cc2ccc3c(c2)OCO3)CC1
-0.5	CNC(=O)c1cn(-c2ccc(Cl)cc2)c(=O)c2ccccc12
0.4	COc1cccc(-n2cc(C(=O)NCCCOC(C)C)c3ccccc3c2=O)c1
0.4	O=C(CCn1c(=S)oc2ccccc21)Nc1cccc(O)c1
-0.1	COc1cc(OC)nc(S(C)(=O)=O)n1
1.8	CCOC(=O)c1cc(S(=O)(=O)Nc2ccc(F)cc2F)cn1C
-1.4	Cc1sc2nc(SCC(=O)NCc3ccco3)n(CCc3ccccc3)c(=O)c2c1C
-1.2	O=C(CCC1CCCN(C(=O)c2ccc(F)c(F)c2)C1)N1CCN(c2ccccn2)CC1 (configuration not stated)
-0.8	CC1=CC(=O)OC1Cc1ccncc1 (configuration not stated)
0.4	CC(=O)N1CCOc2ccc(S(=O)(=O)NCC3CCC(C(=O)Nc4ncccc4C)CC3)cc21 (configuration not stated)
0.3	Cc1ccccc1NC(=O)CN1CCC(n2nnc3ccccc32)CC1
0.6	COC(=O)CCC(=O)OC1(C)C(=O)C2=CN(CCc3ccccn3)C(c3ccc(OC)cc3)=CC2=C(Br)C1=O (configuration not stated)
-0.7	CCCCNC(=O)NCC(=O)Nc1ccc(F)c(F)c1
-1.3	O=c1c2ccccc2n2c(-c3cccc(Cl)c3)nnc2n1Cc1ccccc1
-0.7	COc1c(S(=O)(=O)N2CCN(C(=O)c3ccco3)CC2)ccc(Cl)c1Cl
-0.5	Cc1c(C(=O)OCC(=O)NCC2CCCO2)cccc1[N+](=O)[O-] (configuration not stated)
-1.7	N#CCCN1CCN(S(=O)(=O)c2ccc(S(=O)(=O)NC3CCCCC3)cc2)CC1
0.4	COCCn1c(C)cc(C(=O)CSc2nnc(-c3cccnc3)n2-c2ccccc2F)c1C
0.6	Clc1ccc(C2C3=C(Nc4ncnn42)c2ccccc2CC3)cc1 (configuration not stated)
-1.5	C=CCN1C(=O)c2ccc(C(=O)NCCc3ccc(OC)c(OC)c3)cc2C1=O
-0.2	CCCCC1=CC2=C(c3ccco3)C(=O)C(C)(OC(=O)c3ccc(OC)cc3)C(=O)C2=CN1CCN1CCOCC1 (configuration not stated)
-1.4	O=c1cc(O)c2ccccc2[nH]1
-1.3	CCN(CC)CCn1c(=S)[nH]c2ccc(Br)cc2c1=O
-0.5	O=c1cc(CSc2n[nH]c(=O)n2C2CC2)c2ccc(O)cc2o1
-0.7	CCOC(=O)C1=C(O)C(=O)N(c2ccc(S(N)(=O)=O)cc2)C1c1ccc([N+](=O)[O-])cc1 (configuration not stated)
0.5	COc1cc(/C=C2\N=C(c3c(-c4ccccc4)noc3C)OC2=O)ccc1OC(C)=O
0.4	Cc1csc(Nc2ccccc2)n1
-1.4	CCN(Cc1nc(-c2ccccc2)no1)C(=O)c1ccoc1C
0.8	CN1C=CC2=C(C#N)C(N)C(C#N)(C#N)[C@H](c3ccccc3)[C@H]2C1 (some centres not stated)
-0.1	CC(C)c1nc(C#N)c(NN)o1
1.2	Cc1cc(-c2ccc(S(=O)(=O)N3CCCCC3)s2)on1
0.8	Cc1cc(C)nc(NC(=O)c2csnn2)c1
-1.0	Cc1ccc(N=CC2=C(O)CC(c3ccccc3Cl)CC2=O)cc1 (configuration not stated)
-0.1	CCn1nnc2cc(C(=O)Nc3cc(OC)cc(OC)c3)ccc21
-0.9	CC(CNC(=O)CCC(=O)N1CCOc2ccccc21)c1ccccc1 (configuration not stated)
0.0	O=C(N/N=C/c1ccc(N2CCCCC2)o1)c1ccccc1
-0.2	N#CCSc1nn(-c2ccc(F)cc2)c(=S)s1
0.0	CCOC(=O)CSC1=C(C#N)C(c2ccc(C)cc2)C(C(=O)OC)C(=O)N1 (configuration not stated)
-0.6	Cc1ccc(C2CC(=O)NC3=C2C(=O)CCC3)cc1Br (configuration not stated)

The list goes on:
STK33 kinase inh	Compound
-1.1	COc1ccc(C(=O)O)cc1S(=O)(=O)N(C)CCc1cccnc1
-0.6	Cc1nn(-c2ccccc2)c(Cl)c1/C=N/NC(=O)CNC(=O)c1ccccc1Cl
-0.7	C=CCNC(=O)NC(=O)CSc1nnc(C(F)(F)F)n1C
-1.0	Cc1ccc(S(=O)(=O)N(C)CC(=O)Nc2ccc3c(c2)OCO3)cc1
-0.8	COc1ccc(/C=C2\OC(=S)N(C)C2=O)cc1
-0.7	COC(=O)C(C)n1cnc2c(nnn2-c2ccc(OC)cc2)c1=O (configuration not stated)
-1.2	CC(C)CN(C(=O)CN1CCN(c2ccc([N+](=O)[O-])cc2)CC1)c1c(N)n(CC(C)C)c(=O)[nH]c1=O
-2.5	Cn1nccc1C(=O)Nc1cccc(S(=O)(=O)N2CCOCC2)c1
-1.6	O=C(Cn1cc(C(F)(F)F)ccc1=O)N/N=C/c1ccc(Cl)cc1
-1.2	CC(C)CC(c1nnnn1Cc1ccco1)N1CCN(c2cccc(Cl)c2)CC1 (configuration not stated)
1.1	COc1cccc(Sc2ccccc2CN(C)C)c1
-3.9	Cc1ccc(C(NC(=O)C(C)C)c2cc([N+](=O)[O-])c3cccnc3c2O)cc1 (configuration not stated)
0.0	CCC(Oc1ccccc1)C(=O)NCCCN1CCOCC1 (configuration not stated)
-0.5	CCO/C(C)=N/n1c2nc3ccccc3nc2c2c(=O)n(CC(C)C)c(C)nc21
-1.5	C=CCNC(=O)c1nc2ccccc2s1
-0.5	CC(C)(C)NC(=O)NC(=O)CN1CCN(c2ccc(O)cc2)CC1
0.2	Fc1ccc(CSc2nnc3ccccn23)c(Cl)c1
1.2	Cc1ccc(NC(=O)C(NC2CCCC2)c2ccccc2)cc1Cl (configuration not stated)
-4.7	CC(=O)Nc1ccc(NC(=O)c2cc(=O)c3cc(C)cc(C)c3o2)cc1
-2.4	Cc1ccccc1N1CCN(C(=O)CCN2C(=O)c3ccccc3C2=O)CC1
-1.6	O=S(=O)(NCC(c1ccco1)N1CCN(c2ccccc2F)CC1)c1ccccc1 (configuration not stated)
-1.7	COc1ccccc1NC(=O)c1cc(S(=O)(=O)N2CCCCCC2)ccc1F
-0.4	Cc1ccc(/C=N/c2sc3c(c2C#N)CCC3)s1
0.3	CCCCOC(=O)Nc1cc(OC)c(Cl)cc1OC
-0.2	Cc1ccc(C(=O)COC(=O)c2ccccc2N2C(=O)C3C4CCC(C4)C3C2=O)cc1C (configuration not stated)
5.1	Cc1ccc(NC(=O)Nc2ccno2)cc1
3.1	CCc1c(C)nc(N2CCN(c3ccccc3)CC2)[nH]c1=O
-0.3	O=C(NCCN1CCOCC1)C(=O)NCC1OCCCN1S(=O)(=O)c1ccc(F)cc1 (configuration not stated)
-1.5	Cc1cccc(N2CCN(CC(O)COc3ccccc3Cl)CC2)c1 (configuration not stated)
-0.7	CCOC(=O)N1CCN(C(=O)CN2C(=O)c3ccccc3S2(=O)=O)CC1
0.1	Cc1cc(C)cc(-c2nnc(SCC(=O)c3ccc4c(c3)OCCO4)o2)c1
-2.5	Oc1ccc(CN2CCCc3ccccc32)c2cccnc12
0.3	CN(CC(=O)Nc1ccc(N2CCOCC2)cc1)C(=O)CSc1ccc(Br)cc1
-0.1	O=C(CSc1nc2ccccc2s1)N1CCOCC1
-0.3	Cc1nc2ccccc2n1/C(=N/S(=O)(=O)c1ccc(Br)cc1)c1ccccc1
-0.3	CCCN1C(=O)/C(=C2\SC(=S)N(c3c(C)n(C)n(-c4ccccc4)c3=O)C2=O)c2ccccc21
-0.7	CC(=O)N1N=C(c2ccc(Cl)cc2)OC1(C)C
-1.6	C=CCOc1ccc(C2C3=C(CCCC3=O)N(CC(=O)O)C3=C2C(=O)CCC3)cc1OCC
0.2	O=C(Cn1cnc2ccccc2c1=O)c1ccccc1
0.4	Cc1cccc(CSc2cccc3cccnc23)c1
-0.4	CCNC(=O)CN1C(=O)NC2(CCCCCC2)C1=O
-0.7	COc1ccc(Oc2cc(C(F)(F)F)nc(N(C)C)n2)cc1
1.6	O=S(=O)(Cc1ccccc1)N1CCN(Cc2ccc(Br)cc2)CC1
-0.8	COc1ccc(C2(C)NC(=O)N(CC(=O)NCc3ccccc3F)C2=O)cc1 (configuration not stated)
2.3	O=c1c2c3n(c(=O)nc2[nH]n1-c1ccccc1)CCCCC3
1.4	COc1ccccc1C(=O)N1CCCC1(C#N)c1ccccc1 (configuration not stated)
0.4	Cc1nn(C)cc1C(=O)NNC(=S)Nc1ccccc1
-1.2	CC(CC(=O)NC1CCSC1=O)c1ccccc1 (configuration not stated)
-0.6	Nc1sc2c(c1C(=O)NC1CCS(=O)(=O)C1)CCC2 (configuration not stated)
-0.9	Cc1cc(-c2ccccc2)c2ccc(NC(=O)C(C)(C)C)nc2n1
-0.6	CCOc1cc(C(=O)Nc2ccc(S(=O)(=O)Nc3nnc(CC)s3)cc2)cc(OCC)c1OCC
-0.7	CCCCCCn1c(SCCOC)nc2c1c(=O)[nH]c(=O)n2C
-0.6	O=C(Nc1cccc(-c2csc(Nc3cccc(C(F)(F)F)c3)n2)c1)c1cc([N+](=O)[O-])cc(C(F)(F)F)c1
-0.1	COc1ccccc1/C=C/C1(C(=O)NC2CCCC2)CC(=O)N1c1ccccc1 (configuration not stated)
-0.5	O=C(CC1C(=O)NCCN1C(=O)Nc1ccccc1)Nc1cccc(C(F)(F)F)c1 (configuration not stated)
-1.4	Cc1ccc(SCc2cn3cc(Cl)ccc3n2)cc1

(cont.)
STK33 kinase inh	Compound
0.3	Cc1ccnc(NC(=O)CCC(=O)N(CC(=O)NC2CCCCC2)c2ccc3c(c2)OCO3)c1
-0.3	CCCCn1c(SCC(=O)Nc2oc(C)c3c(C)n[nH]c(=O)c23)nc2cc(S(N)(=O)=O)ccc21
-1.0	COC(=O)c1cn(NC(=O)Cc2ccc(OC)c(OC)c2)c(=O)c2ccccc12
-0.5	CCOC(=O)c1cc(C#N)c(SCC(=O)c2cc(C#N)c(SC)nc2C)[nH]c1=O
-4.6	Cn1cc(Cl)c(-c2n[nH]c(=S)n2C2CCCCC2)n1
-0.8	CCc1ccc(C(=O)NNC(=O)c2cccc(N3C(=O)CCC3=O)c2)cc1
-0.8	COc1ccccc1NC(=O)NCC(=O)Nc1c(C)cccc1C
1.2	Cc1noc(C)c1S(=O)(=O)N1CCN(c2ccc([N+](=O)[O-])cc2)CC1

Of the compounds above, nine contain a nitro group on carbon.
STK33 kinase inh	Compound
-0.1	Cc1c(Cl)c([N+](=O)[O-])nn1CCCC(=O)Nc1ccc(Cl)cc1Cl
-0.6	O=C(c1ccc(F)cc1)N1CCN(c2ccc([N+](=O)[O-])c(N3CCOCC3)c2)CC1
-1.1	CN(CC(=O)Nc1cccc(F)c1)C(=O)c1ccc(NC2CC2)c([N+](=O)[O-])c1
-0.5	Cc1c(C(=O)OCC(=O)NCC2CCCO2)cccc1[N+](=O)[O-] (configuration not stated)
-0.7	CCOC(=O)C1=C(O)C(=O)N(c2ccc(S(N)(=O)=O)cc2)C1c1ccc([N+](=O)[O-])cc1 (configuration not stated)
-1.2	CC(C)CN(C(=O)CN1CCN(c2ccc([N+](=O)[O-])cc2)CC1)c1c(N)n(CC(C)C)c(=O)[nH]c1=O
-3.9	Cc1ccc(C(NC(=O)C(C)C)c2cc([N+](=O)[O-])c3cccnc3c2O)cc1 (configuration not stated)
-0.6	O=C(Nc1cccc(-c2csc(Nc3cccc(C(F)(F)F)c3)n2)c1)c1cc([N+](=O)[O-])cc(C(F)(F)F)c1
1.2	Cc1noc(C)c1S(=O)(=O)N1CCN(c2ccc([N+](=O)[O-])cc2)CC1

The main list resumes; the 3 compounds before the break are reprinted first.
STK33 kinase inh	Compound
-0.8	CCc1ccc(C(=O)NNC(=O)c2cccc(N3C(=O)CCC3=O)c2)cc1
-0.8	COc1ccccc1NC(=O)NCC(=O)Nc1c(C)cccc1C
1.2	Cc1noc(C)c1S(=O)(=O)N1CCN(c2ccc([N+](=O)[O-])cc2)CC1
-1.5	COc1cccc(C(=O)/C=C/c2ccc(N3CCCCC3)c([N+](=O)[O-])c2)c1
-0.9	c1ccc2c3c([nH]c2c1)C1(CCCCC1)NCC3
-1.5	CCN(Cc1ccccc1)S(=O)(=O)c1c(C(=O)N2CCCC2)c(C)n(C)c1C
1.5	O=C(COc1ccc2ccccc2c1Br)N1CCN(c2ccccn2)CC1
0.6	CCCCc1cc(=O)oc2cc(OCC(=O)NCc3ccccn3)ccc12
1.4	O=C(O)C(c1ccccc1)N1C(=O)/C(=C\c2ccc(-c3cccc(Cl)c3)o2)SC1=S (configuration not stated)
-0.1	COc1ccc(OC)c(S(=O)(=O)n2cccn2)c1
2.2	Cc1ccc(-n2c(O)c(C=Nc3ccc(S(=O)(=O)Nc4ncccn4)cc3)c3ccccc3c2=O)cc1C
-0.9	CCOC(=O)CSc1nc2c(c(=O)n1-c1ccc(OCC)cc1)SCC2
